Assay outcomes as filed in PubChem.
TRPML1 inh: human mucolipin-1 channel inhibition. Q9GZU1. TRPML1-inducible cells, Ca2+ dye fluorescence, FDSS; hits give low values; inhibition of EC80 agonist-evoked calcium signal. activity change, negative = inhibition, % (test concentration not listed). actives 0.02% (n = 390,000); in the data active means activity change below about -50%; inconclusive means about -30% to -50%; inactive means above about -30%;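 further: stimulus is agonist 54-4 at its EC80 concentration; on the % scale 0 is the no-effect control and ±100 the full control effect; compound concentration not given in the record; the text of the record puts the active cut at -80%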
Target sequence (Q9GZU1 whole entry, looked up): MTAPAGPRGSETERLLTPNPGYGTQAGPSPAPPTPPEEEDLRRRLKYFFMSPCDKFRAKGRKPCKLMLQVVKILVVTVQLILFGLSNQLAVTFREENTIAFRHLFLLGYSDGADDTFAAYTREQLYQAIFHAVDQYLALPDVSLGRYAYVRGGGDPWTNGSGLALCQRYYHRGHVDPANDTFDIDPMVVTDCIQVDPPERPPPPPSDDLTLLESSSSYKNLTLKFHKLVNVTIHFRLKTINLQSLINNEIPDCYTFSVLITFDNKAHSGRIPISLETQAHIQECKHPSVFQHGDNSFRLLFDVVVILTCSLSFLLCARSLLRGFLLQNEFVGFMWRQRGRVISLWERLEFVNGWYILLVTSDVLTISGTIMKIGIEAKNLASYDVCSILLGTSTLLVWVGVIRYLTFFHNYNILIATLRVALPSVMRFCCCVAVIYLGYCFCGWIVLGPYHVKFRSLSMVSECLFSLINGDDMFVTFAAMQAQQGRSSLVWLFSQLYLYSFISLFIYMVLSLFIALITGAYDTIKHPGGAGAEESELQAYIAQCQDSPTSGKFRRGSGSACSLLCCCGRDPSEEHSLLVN
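TRPML1-DL cells, Tet-induced overnight (~16 h, 37 °C) at 1,500 cells/well, were loaded with Ca8 no-wash dye plus quencher for 45-90 min at room temperature. Compounds were pinned during FDSS kinetic reading; agonist 54-4 at EC80 (4 uM final) then added.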
TRPML1 ag: activates the human TRPML1 channel | TRPML1-expressing cells, Ca2+ dye fluorescence, FDSS; host cell line not named in the record; reference of the full effect not given here | actives 0.12% (n = 410,000) | activation, % (test concentration not listed) | Q9GZU1; in the data active = activation above about 50%; inconclusive = about 30% to 50%; inactive = below about 30%; further: 0% is about no effect; the text of the record puts the active cut at 80%
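Tetracycline-induced TRPML1-DL cells are seeded and incubated overnight before loading with a no-wash Ca2+ dye and quencher. Agonist activity is taken from the 110 s fluorescence read following compound pin-transfer on an FDSS, before EC80 54-4 challenge.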
ClpP mod: qHTS Assay for Activators of ClpP. purified B. subtilis ClpP, FRET peptide cleavage, 20 min. actives 1.9% (n = 340,000). ATP-dependent Clp protease proteolytic subunit (Bacillus subtilis (strain 168)), P80244. Potency, µM (top dose mostly 57.5 µM), inactives show at the top dose activity change, negative = active. AID 651965, 2013; active = well fitted falling curve with a large enough effect; inconclusive = small, poorly fitted or top-dose-only effect; inactive = no such curve, though single readings can be large or run the other way; further: potency means the concentration at half of the fitted maximal effect; the source files actives as falling curves though it sought activators and does not explain the sign; nearly all actives have a fitted effect of over 65% in size; many hits overshoot -100%
Target sequence (P80244 whole entry, looked up): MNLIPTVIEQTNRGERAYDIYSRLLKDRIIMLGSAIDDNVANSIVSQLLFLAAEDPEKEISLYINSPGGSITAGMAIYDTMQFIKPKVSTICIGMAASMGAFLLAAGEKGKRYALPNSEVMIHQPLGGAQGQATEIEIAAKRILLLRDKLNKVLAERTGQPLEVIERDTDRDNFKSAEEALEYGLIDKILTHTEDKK
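Purified B. subtilis ClpP, 10 microg/mL final in Tris/HCl pH8 with KCl, BSA, glycerol and Tween-20, cleaved an Abz/nitrotyrosine-quenched decapeptide. Fluorescence (ex 320, em 430) was read at 0 and 20 min at room temperature. Delta was normalized to 5.8 microM ADEP and DMSO/no-enzyme controls.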
PINK1 modulator: modulators of PINK1 expression; PINK1 immunofluorescence, high-content cytometry, 24 h; Potency, µM (series often up to 76.6 µM), for the others: at the top dose activation (PINK1 increase), most hits filed as activators; actives 0.2% (n = 410,000); AID 624263; active = well fitted activation curve with a large enough effect; inconclusive = small, poorly fitted or top-dose-only effect; inactive = flat fitted curve, though single readings scatter; cell line not stated here;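 further: potency means the concentration at half of the fitted maximal effect; % of control where 0% means no effect; nearly all actives have a fitted effect of over 65% in size; a mitochondrial uncoupler was the plate control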
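Measures PINK1 amount and localization on or inside mitochondria by immunofluorescence. Stable cells get compounds at 5 concentrations for 24 hours before fixation and staining; CCCP controls included.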
Menin MLL FP FL: displaces fluorescein MLL peptide from human menin | FP activity change, % at 61.4 µM | 290,000 tested, under 10 active | Fluorescence polarization, fluorescein-MLL peptide displacement from menin | AID 1766; inconclusive = falling polarisation curve, or a change in total fluorescence; inactive = total fluorescence flat and polarisation flat or rising; no compound was filed as active; the % refers to the polarisation; negative = inhibition;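 further: % of control where 0% means no effect; inhibitors lower the polarisation; unlabelled MLL peptide was the positive control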
Sfp inh: Sfp phosphopantetheinyl transferase inhibition. Q9F4F7. Biochemical Sfp PPTase activity, qHTS. Potency, µM, for the others: max response, negative = inhibition, hits mostly inhibitors. actives 3.5% (n = 310,000). AID 1490; active means well fitted inhibition curve with a large enough effect; inconclusive means small, poorly fitted or top-dose-only effect, or another doubt; inactive means no such curve, though single readings can be large or run the other way;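 further: the enzyme is Sfp with the accession as filed and its product quenches rhodamine fluorescence; potency means the concentration at half of the fitted maximal effect; 0% = enzyme reaction without inhibitor and -100% = no enzyme wells; top concentration of the series not given in the record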
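Sfp 15 nM + cpd, 15 min RT; start w/ rhodamine-CoA 5 uM, BHQ-2-YbbR 12.5 uM (final); 50 mM Hepes pH 7.6, 10 mM MgCl2, 0.01% NP-40, 0.01% BSA; read 525/598 nm at 0 and 30 min.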
TRPV1 potentiator: potentiators of human vanilloid receptor 1 (TRPV1); AID 540277; potentiation, % at 8.33 µM; actives 0.02% (n = 320,000); TRPV1-expressing cells, Fluo-8 calcium influx, capsaicin EC20 potentiation; host cell line not named in the record; control for the full effect not named in the record; active means potentiation above 80%; inconclusive means 30% to 80%; inactive means below 30%; further: 0% is about no effect
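Cells expressing TRPV1 were dye-loaded with Fluo-8 and read kinetically: 10 s baseline, 3 min after compound (agonist portion), then 2 min after EC20 capsaicin (allosteric enhancer portion). Calcium-bound dye fluorescence at 480/520 nm.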
An asterisk follows results filed as active; u = inconclusive; x = not tested or not shown; & = joins results of further samples; [ ] = another dose, or the depositor's remark. Compounds as they come; about 4.4% have a hit in one of these screens.

SMILES	TRPML1 inh	TRPML1 ag	ClpP mod	PINK1 modulator	Menin MLL FP FL	Sfp inh	TRPV1 potentiator
Cc1nc2c(ccc3nc(NC(=O)c4ccc(S(=O)(=O)N(C)C)cc4)sc32)s1	6	0.2	21%	10%[38.3 µM]	2.8	9%	-21
CCOC(=O)c1[nH]c2c(c1-c1ccc(OC)cc1)C(=O)CC(c1ccc(OC)c(OC)c1)C2 (configuration not stated)	-23	1.9	-4.6%	3.0%	6.5	-10%	5
COc1ccccc1CNc1ccc(-c2nc(C(C)C)no2)cc1[N+](=O)[O-]	18	-0.7	-1.0%	0.1%	x	x	x
O=C(NCc1ccc(Cl)cc1)C(=O)NCC(c1cccs1)S(=O)(=O)c1cccs1 (configuration not stated)	7	-0.2	0.2%	1.3%	x	x	x
CCOc1ccc(C(=O)Nc2ccc(OCc3cc(=O)n4cccc(C)c4n3)cc2)cc1	11	-0.3	u	0.9%	x	x	x
C[C@@H]1CC=C[C@H]2[C@H]1C(=O)N(Cc1ccccc1)[C@H]2c1ccc(-c2ccc(N(C)C)cc2)cc1F	14	-0.5	4.2%	2.4%	0.0	-6%	u
Fc1cccc(Cl)c1CSC1=NCCS1	-11	2.1	x	15%	-4.0	12%	-2
CCCNC(=O)NC(=O)COc1c(F)c(F)cc(F)c1F	-24	1.0	-25%	-2.9%	4.2	13%	-11
CC(C)CCn1c(Oc2ccccc2F)nc2c1c(=O)n(C)c(=O)n2C	31	1.3	0.0%	0.4%	x	x	x
COCCCn1c(SCC(=O)Nc2ccc(C)cc2)nc2ccccc2c1=O	24	2.2	x	2.8%	0.0	10%	-5
Cc1ccc(CNC(=O)CCS(=O)(=O)c2ccc3c(c2)oc(=O)n3C)cc1	11	-1.2	0.4%	-0.8%	x	10%	-13
COc1ccc(NC(=O)C2Cc3c(-c4cccc(C(N)=O)c4)ccnc3O2)cc1OC (configuration not stated)	x	0.1	u	6.1%	x	x	x
CCCCN(C(=O)c1cccc(S(=O)(=O)N2CCN(C)CC2)c1)c1c(N)n(CC(C)C)c(=O)[nH]c1=O	-7	-0.2	x	-4.1%	x	x	16
COc1cccc(Nc2ncc3nc(C)c(=O)n(-c4ccccc4)c3n2)c1	x	x	x	1.4%	8.1	-8%	x
Cc1cccc(NC(=O)CCCCCN2C(=O)c3ccccc3C2=O)n1	-9	-1.1	-3.1%	1.5%	5.6	-3%	-1
COc1cccc(-c2nnn(CC(=O)Nc3cc(OC)c(NC(=O)c4ccco4)cc3OC)n2)c1	-1	-1.0	5.9%	12%	2.9	u	1
CC/C(=N\NC(=O)c1nnn(-c2nonc2N)c1-c1cccs1)c1ccccc1	12	0.1	x	4.9%	-6.3	22%	1
Cc1ccc(CNC(=O)CCCCCn2c(=O)c3sccc3n(CC(=O)N(C)c3ccccc3)c2=O)cc1	4	1.5	0.3%	0.5%	x	x	x
COc1ccc(C(=O)N/N=C/c2ccccc2C(=O)O)cc1OC	-4	-0.6	2.2%	2.3%	1.7	31%[activator]	1
Cc1ccc(NC2SC(=O)N(Cc3cccc(C(=O)O)c3)C2=O)c(C)c1 (configuration not stated)	-11	0.2	1.0%	-0.8%	20	0%	-1
COc1cccc(/C(C)=N/NC(=O)Cc2c(C)[nH][nH]c2=O)c1	8	0.3	2.1%	0.0%	0.8	0%	u
CCOc1cc(/C=N/NC(=O)CCCC(=O)NC2CCCCC2)ccc1O	-8	-0.6	-27%	1.2%	-1.1	-8%	7
Cc1ccc(S(=O)(=O)N2CCN=C2SCc2ccccc2)cc1	69	3.0	-0.7%	-0.5%	-2.6	-18%	-15
O=C(Nc1c2c(nn1-c1ccc([N+](=O)[O-])cc1)CS(=O)(=O)C2)c1ccccc1F	1	0.7	0.1%	0.2%	1.7	9%	5
Cc1[nH]c2ccc(C(=O)NCCN3CCCCCC3)cc2c1C	6	0.7	-5.2%	2.9%	1.6	-10%	1
CCCC(O)(CCN1CCOCC1)c1ccc(Cl)cc1 (configuration not stated)	1	0.9	0.0%	0.3%	-0.5	11%	-13
CN(C)S(=O)(=O)N1CCN(S(=O)(=O)c2ccccc2)CC1	2	0.7	-1.8%	-4.5%	0.5	13%	1
Nc1ccn([C@@H]2O[C@H](COS(=O)(=O)O)[C@@H](O)[C@H]2O)c(=O)n1	-19	-0.2	-1.2%	0.2%	x	x	x
COc1ccc(C2c3c(-c4ccccc4)n[nH]c3C(=O)N2c2ccc(C(=O)O)cc2)cc1 (configuration not stated)	11	0.8	-2.8%	-0.9%	-1.6	16%	3
CCOc1ccc(OCCCC(=O)ON=C(N)c2ccccc2Cl)cc1	22	3.9	0.2%	0.9%	x	x	2
COc1cc(CNS(=O)(=O)c2ccc3c(c2)CC(C)N3C(=O)C2CCC2)cc(OC)c1OC (configuration not stated)	13	-0.6	-0.2%	1.0%	0.1	17%	2
COc1ccc2c(c1)[C@H]1[C@H](CO2)[C@H](c2ccccc2)[C@]2(C)C(=O)Nc3ccc(Br)cc3C(=O)N12	-19	1.8	-11%	0.7%	x	x	x
COc1ccccc1NC(=O)CCNC(=O)C1CCN(S(=O)(=O)c2ccccc2)CC1	1	-0.8	3.0%	-0.4%	x	x	x
C=CCOC(=O)C1=C[C@H](c2csc3ccccc23)C[C@H](OCCCCO)O1	46	0.9	5.0%	1.0%	x	x	x
CC(=O)Nc1ccccc1-c1nc2ccccc2n(C(C)C(=O)c2ccc(C)c(C)c2)c1=O (configuration not stated)	44	3.1	-7.0%	-0.3%	x	x	x
Cc1cc(NC(=O)c2ccccc2)n(-c2ccccc2)n1	-3	-0.2	-2.0%	-1.9%	-0.2	11%	-7
Nc1nc(NC(=O)c2cccs2)nn1-c1ccccc1	-4	-0.6	-0.6%	-0.3%	0.5	16%	-1
Cc1cc(N2C(=O)CCC2=O)n(-c2ccccc2)n1	-1	-0.6	-1.3%	-0.2%	1.8	8%	5
COC(=O)c1ccc(NC(=O)C2C3C=CC(O3)C2C(=O)O)cc1 (configuration not stated)	25	-0.1	-6.5%	-3.4%	1.6	-28%	-5
O=C(CS(=O)(=O)c1cccc2nsnc12)N1CCN(c2ccccc2F)CC1	-8	0.5	-0.2%	0.0%	x	x	x
Nc1nnc(SCC(=O)NCCNC(=O)CSc2nnc(N)s2)s1	20	0.0	-5.5%	2.8%	x	x	-3
Cc1ccccc1Cn1c(=O)n(CCCCC(=O)NCc2ccccc2Cl)c(=O)c2ccccc21	0	-0.9	-0.1%	0.3%	x	x	x
CC[C@@]12C(=O)N(c3cccc(Br)c3)C(=O)N1[C@H](c1ccc(Cl)cc1)[C@@H]1C(=O)N(C3CCCCC3)C(=O)[C@@H]12	9	2.6	1.0%	1.9%	4.6	26%	-2
Cc1cc2nc(-c3ccc(NC(=O)c4ccccc4F)cc3)oc2cc1C	8	-0.2	4.7%	-1.1%	x	x	x
Cc1ccc(S(=O)(=O)N2C(=O)CCC2C(=O)N2CCCCC2)cc1 (configuration not stated)	-11	0.5	-0.6%	-0.3%	3.2	7%	-27
CCCC(=O)Nc1ccc(C#Cc2ccccc2)cc1	8	-0.7	u	2.9%	-1.8	4%	-4
Cc1cc(N)n(-c2ccccn2)n1	-14	-0.2	0.5%	2.1%	6.2	-1%	x
Cc1cccc(C(=O)NCc2nnc(SCC(=O)NC3CCCC3)n2C)c1	-18	0.1	x	1.3%	4.3	13%	8
O=C(O)CCNC(=O)/C(=C/C=C/c1ccccc1)NC(=O)c1ccccc1	7	0.3	-0.8%	-1.2%	-0.8	24%	0
O=c1cc(-c2ccccc2)oc2ccc3ccccc3c12	-3	1.2	-23%	1.4%	x	x	x
O=C(/C=C/c1ccc(O)cc1)c1c(O)cc(O)cc1O	-22	0.3	-1.6%	0.9%	0.9&3.5	-10%&8%	-3
O=S(=O)(NC1CCN(Cc2ccccc2)CC1)c1ccc(F)c(F)c1	-1	-0.2	-1.3%	-0.3%	x	x	x
CCNC(=S)Nc1sc2c(c1C#N)CCC(C)C2 (configuration not stated)	10	0.1	-5.6%	1.9%	5.5	-19%	0
Nc1cc(=O)nc(SCC(=O)Nc2ccc(F)cc2)n1-c1ccccc1Cl	-1	-1.0	1.1%	4.4%	x	x	x
COc1ccc(NS(=O)(=O)c2ccc(N3CCOCC3)c(NC(=O)c3ccccc3Cl)c2)cc1	-13	1.0	-0.7%	10%	6.1	-12%	7
C/C(=N\Nc1cccc2cccnc12)c1ccccc1O	14	4.1	x	5.0%	-5.4	-23%	4
CCOC(=O)Cc1cc(=O)[nH]c(/N=C(\N)Nc2ccc(C)c(C)c2)n1	15	-0.2	x	6.1%	-0.3	11%	1
CCCSc1nc2cc(C)c(C)cc2n1CC(C)O (configuration not stated)	-1	-0.3	x	0.7%	-6.9	-28%	-27
CCn1c(SCC(=O)Nc2cccc(C)c2)nc2nc3c(cc2c1=O)COC(C)(C)C3	0	0.0	1.4%	2.2%	-2.2	-1%	14
CCOC(=O)c1c(C)oc2c1c(C=NC1CCS(=O)(=O)C1)c(O)c1ccccc12 (configuration not stated)	-7	2.0	0.9%	10%	-2.3	12%	2
Additional compounds:
SMILES	TRPML1 inh	TRPML1 ag	ClpP mod	PINK1 modulator	Menin MLL FP FL	Sfp inh	TRPV1 potentiator
O=C(C1CCN(c2ccc(N3CCOCC3)nn2)CC1)N1CCN(c2ccc(F)cc2)CC1	21	0.3	u	0.5%[38.3 µM]	5.8	5%	-1
CCCCn1c(N)c(N(CCOC)C(=O)COC(=O)COc2cccc(C(C)=O)c2)c(=O)[nH]c1=O	-12	0.1	0.3%	-0.6%	x	x	u
Cc1ccc(C(=O)Nc2ccc(N3CCOCC3)c3nonc23)cc1[N+](=O)[O-]	-3	-0.1	x	4.8%	-4.1	-12%	-28
CC(C)n1c(SCC(=O)Nc2ccc(F)cc2)nc2c(oc3ccccc32)c1=O	21	-1.1	1.3%	0.7%	x	x	x
OC(c1ccccc1)(c1nc(-c2cc(F)cc(F)c2)cs1)C(F)(F)F (configuration not stated)	1	1.1	0.1%	-1.3%	x	x	x
